# High-throughput results (PubChem BioAssay)
# GIRK2 act: GIRK2 channel activation; HEK293-GIRK2 thallium flux, Thallos fluorescence; 0.05% of 63,000 active; P48051; calls only for hits at 25 µM;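 active = among the strongest 0.2% of first-round signals and kept after retests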;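 note: first round at about 10 µM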
# Target sequence (P48051 whole entry, looked up): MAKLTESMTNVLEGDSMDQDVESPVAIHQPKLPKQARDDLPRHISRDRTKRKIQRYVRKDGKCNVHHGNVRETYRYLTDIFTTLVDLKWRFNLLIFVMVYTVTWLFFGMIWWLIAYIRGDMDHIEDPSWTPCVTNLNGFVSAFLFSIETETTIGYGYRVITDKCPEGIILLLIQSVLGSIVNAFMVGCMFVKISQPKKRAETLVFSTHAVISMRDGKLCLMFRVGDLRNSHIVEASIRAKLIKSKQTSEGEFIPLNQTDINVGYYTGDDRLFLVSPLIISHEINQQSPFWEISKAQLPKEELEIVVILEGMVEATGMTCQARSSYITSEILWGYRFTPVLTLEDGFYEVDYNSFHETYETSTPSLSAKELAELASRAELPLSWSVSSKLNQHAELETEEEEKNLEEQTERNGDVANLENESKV
# Calls only; i = inactive. An excerpt; rates above refer to the full screens.
molecule	GIRK2 act
O=C(NCC1CCCCN1)c1cc(OCC(F)(F)F)ccc1OCC(F)(F)F (configuration not stated)	i
COc1ccc(NC(C)=O)cc1NC(=O)c1cc(=O)c(OCc2ccc(F)cc2)cn1C	i
CCc1ccc(S(=O)(=O)Nc2ccc3c(c2)N(S(=O)(=O)c2ccc(F)cc2)CCC3)cc1	i
Cc1ccc(CNC(=O)Cc2cc(=O)[nH]c(SCc3ccccc3)n2)cc1	i
COc1ccc(S(=O)(=O)Nc2ccc(Oc3ccc(C)nn3)cc2)cc1Cl	i
CN(C)CC(=O)C12CC3CC(C1)CC(c1ccccc1)(C3)C2	i
COC(=O)c1ccc(S(=O)(=O)NCC(C)(O)c2cccs2)cc1 (configuration not stated)	i
COc1ccccc1NC(=O)c1nc(-c2ncccn2)no1	i
O=C(c1ccco1)N(CCCn1ccnc1)c1nc2c(F)cc(F)cc2s1	i
O=C(CN1CCN(c2ccccc2F)C1=O)Nc1nccs1	i
CC(Cc1ccc(O)c(O)c1)C(C)Cc1ccc(O)c(O)c1 (configuration not stated)	i
CCOc1ccccc1C(=O)N1CCN(Cc2nc(C)cs2)CC1	i
COc1ccc(-c2c(C)oc3cc(OCCN4CCN(C)CC4)ccc3c2=O)cc1OC	i
O=C(/C=C/c1ccco1)N1CCCC(c2nnc(-c3ccccc3F)s2)C1 (configuration not stated)	i
CN(C)c1cccc(C(=O)N2CCCC(c3nnc(C(F)(F)F)o3)C2)c1 (configuration not stated)	i
Cn1nc(-c2ccc(F)cc2)cc1C(=O)NCC1CCN(C(=O)c2ccoc2)CC1	i
CC(O)(CNC(=O)c1cc2ccccc2o1)c1ccco1 (configuration not stated)	i
Cc1onc(-c2ccccc2Cl)c1C(=O)NCc1cc(-c2ccco2)n(C)n1	i
O=C(Cn1cccc(S(=O)(=O)N2CCCC2)c1=O)Nc1ccc(Cl)c(Cl)c1	i
Cc1ccc2[nH]c(C(=O)N3CCC(C)CC3)c(NC(=O)c3ccc(Cl)cc3)c2c1	i
CC(=O)NC[C@H]1CN(c2ccc(N3CCOCC3)c(F)c2)C(=O)O1	i
COc1ccc(C2=C(c3cn(C)c4ccccc34)C(=O)NC2=O)cc1	i
CCCS(=O)(=O)N1CCCc2ccc(NS(=O)(=O)c3ccc(OCC(C)C)cc3)cc21	i
O=C(NCc1ccc(F)cc1)C(=O)NCC1CCN(C(=O)c2ccoc2)CC1	i
CC(Cn1nc(-c2cccs2)ccc1=O)C(=O)NCc1ccccn1 (configuration not stated)	i
COC(=O)c1ccc(OC)c(CN2N=NC3C(=O)N(c4ccc(OC)c(Cl)c4)C(=O)C32)c1 (configuration not stated)	i
COc1ccc(-c2noc(-c3c(C)cc(C)n(CC(=O)Nc4ccc5c(c4)OCCO5)c3=O)n2)cc1	i
COCCNC(=O)NCC1(c2ccccc2)CCOCC1	i
Cc1noc(C)c1CN1CCN(C(=O)c2ccccc2C(F)(F)F)CC1	i
COc1cc(C(C)=O)ccc1OCC(O)Cn1cccn1 (configuration not stated)	i
O=C(C1c2ccccc2Oc2ccccc21)N(CCc1cccs1)C1CC1	i
O=C(CCCSc1ccc(NC(=O)c2cccs2)nn1)NCc1ccncc1	i
COc1ccc(NC(=O)N2CCC(Cn3ccnc3)CC2)cc1OC	i
Cc1cc(=O)n(CC(=O)NCc2ccc3c(c2)OCO3)c(N)n1	i
CCOc1cc(/C=C2\SC(=S)N(c3ccc(NC(C)=O)cc3)C2=O)ccc1O	i
COc1ccc(OCCCN2C(=O)C3(SC(NC(C)=O)=NN3C(C)=O)c3cc(C)ccc32)cc1 (configuration not stated)	i
O=C1CC(c2cccs2)CC(=O)N1Cc1csc(-c2ccccc2)n1	i
O=C(NCCn1ncccc1=O)c1ccc(S(=O)(=O)N2CCCC2)cc1	i
FC(F)(F)c1cccc(CN2CC(c3nc(-c4ncccn4)no3)C2)c1	i
COc1ccc(CNC(=O)c2ccc(Cn3c(=S)[nH]c4cc5c(cc4c3=O)OCO5)cc2)cc1	i
O=C(N1CCC(c2nnc(C3CC3)o2)CC1)C1(c2cccs2)CCCC1	i
CCOc1ccc(C2NC(=O)NC(C)=C2C(=O)Nc2ccc(C)c(Cl)c2)cc1OC (configuration not stated)	i
COc1ccc(N2CCN(CCn3c(C)c(C)n4c5c(=O)[nH]c(=O)n(C)c5nc34)CC2)cc1	i
O=C(CC1CCCC1)N1CCN(Cc2nc(-c3ccc(F)cc3)cs2)CC1	i
COCCN1CCC(CNC(=O)c2ccc(Cl)cc2)CC1	i
O=C(c1cc(-c2ccc3c(c2)OCCO3)on1)N1CCN(Cc2ccccc2)CC1	i
Cc1cc(O)ccc1N1C(=O)CCC1=O	i
O=Cc1c(-c2ccc(Br)cc2)nn2ccnc(N3CCN(C(=O)c4ccco4)CC3)c12	i
COc1cccc(Oc2nccn3c(=O)n(CC(=O)NCc4cccs4)nc23)c1	i
Cc1ccc(C)c(-c2csc(NC(=O)CN3C(=O)c4ccccc4C3=O)n2)c1	i
CCOc1ccc2nc(NC(=O)COc3ccc(-n4cccn4)nn3)sc2c1	i
CC1(C)CC[C@]2(C(=O)O[C@@H]3O[C@H](CO)[C@@H](O)[C@H](O)[C@H]3O)CC[C@]3(C)C(=CCC4[C@@]5(C)CC[C@H](O[C@@H]6O[C@H](C(=O)O)[C@@H](O)[C@H](O[C@@H]7O[C@H](CO)[C@H](O)[C@H](O)[C@H]7O)[C@H]6O)C(C)(C)C5CC[C@]43C)C2C1 (some centres not stated)	i
CC(=O)c1cccc(NC(=O)CSc2nc3cc(-c4ccccc4)sc3c(=O)n2C)c1	i
Cc1cc(C)n(-c2nc(CCNC(=O)C(C)(C)Oc3ccc(Cl)cc3)cs2)n1	i
O=C(Cc1cccs1)Nc1nc(C(=O)NCc2cccnc2)co1	i
CCN(CCCNC(=O)Cn1cnc2c([nH]c3ccc(C)cc32)c1=O)c1cccc(C)c1	i
O=C(NCCC(O)C1CC1)Nc1ccccc1C(F)(F)F (configuration not stated)	i
COc1ccc(-c2cc(C(F)(F)F)c(C#N)c(SCCC(N)=O)n2)cc1	i
O=C(Nc1cccc(Br)c1)c1cc2n(n1)CCCO2	i
COC(=O)Nc1nc(CC(=O)Nc2nc3c(s2)CCCC3)cs1	i

# Additional records follow:
molecule	GIRK2 act
COc1ccc(S(=O)(=O)NCC(c2ccsc2)N2CCc3ccccc3C2)cc1 (configuration not stated)	i
COc1cccc(S(=O)(=O)Nc2cccc(C(=O)N3CCCC3)c2)c1	i
CCN1CCC2(CC1)N=C(SCC(=O)Nc1ccccc1C)C(c1ccc(Br)cc1)=N2	i
COc1ccc(Cn2cnc3c4ccccc4n(CC(=O)Nc4ccc5c(c4)OCO5)c3c2=O)cc1	i
OC(CN1CCN(Cc2cccc(F)c2)CC1)C1CC1 (configuration not stated)	i
O=c1c2snc(-c3ccccn3)c2n(Cc2cccc(F)c2)c(=O)n1C1CC1	i
Cc1nnsc1C(=O)NCCOc1cccc2cccnc12	i
O=C(CCn1cnc2ccccc2c1=O)NCC#CCOc1cccc(C(F)(F)F)c1	i
Cc1ccccc1N1CCN(c2nccn3c(=O)n(CC(=O)Nc4ccc(Cl)cc4)nc23)CC1	i
CCOC(=O)CCn1c(=O)c2c(nc3n2CCN3c2ccccc2)n(C)c1=O	i
COC(=O)c1ccccc1C(=O)N1CCC(CSCc2ccco2)CC1	i
N#Cc1cnc2ccccc2c1N1CCC(C(=O)NCc2ccccc2Cl)CC1	i
CN(C)S(=O)(=O)c1ccc(C(=O)Nc2c3c(nn2CC(=O)NCc2ccco2)CSC3)cc1	i
CCOc1ccccc1NC(=O)COC(=O)CC(C)(C)CC1=NS(=O)(=O)c2ccccc2N1	i
O=C(NCCC(O)c1ccc2c(c1)OCO2)c1cc(-c2ccco2)on1 (configuration not stated)	i
COc1ccc(CCC(=O)Nc2cc(C)nn2-c2nc3c(cnn3-c3cccc(C)c3)c(=O)[nH]2)cc1	i
COc1ccc(CCNC(=O)Cn2ccn3nc(-c4ccc(Cl)cc4)cc3c2=O)cc1OC	i
O=C(/C=C/c1ccco1)NCC1CCN(C(=O)Oc2ccccc2)CC1	i
CC(=O)Nc1ccc(Cl)cc1-c1nc2ccccc2[nH]c1=O	i
COc1ccc(Br)c(C(=O)N2CC(c3nc(-c4cccs4)no3)C2)c1	i
O=C(Cc1c(F)cccc1Cl)NCC1CCS(=O)(=O)C1 (configuration not stated)	i
O=C(/C=C/c1ccccc1)NCc1nn(C2CCCC2)c(=O)c2ccccc12	i
Cc1nc(-c2ccc(N3CCN(C(=O)c4ccc(Cl)s4)CC3)nc2)no1	i
Cc1ccc(-n2cc(C(=O)N3CCSCC3)nn2)cc1	i
O=C(NCc1cccc(Cl)c1)C1CCN(c2ncccc2-c2nc(-c3ccccc3)no2)CC1	i
O=C(Cc1nnc(-c2cccc(Br)c2)o1)NCc1ccc(F)cc1Cl	i
COc1ccccc1NC(=O)C1=C(C)Nc2nc(SC)nn2C1c1ccccc1F (configuration not stated)	i
COc1ccc(S(=O)(=O)Nc2cnc(N3CCCC3)nc2)c(OC)c1OC	i
O=C(c1cn(-c2cc(N3CCSCC3)ncn2)cn1)N1CCSCC1	i
O=C(Nc1cccc(Cl)c1)Nc1nc(CCC(=O)N2CCCC2)cs1	i

# Some of these compounds in order of number of heavy atoms, low to high.
molecule	GIRK2 act
CC(=O)Nc1ccc(Cl)cc1-c1nc2ccccc2[nH]c1=O	i
Cc1nc(-c2ccc(N3CCN(C(=O)c4ccc(Cl)s4)CC3)nc2)no1	i
COc1ccc(S(=O)(=O)Nc2cnc(N3CCCC3)nc2)c(OC)c1OC	i

# (cont.)
molecule	GIRK2 act
Cc1ccc(N2CCn3c2nc2c3c(=O)[nH]c(=O)n2C)cc1Cl	i
Cc1ccc(C)c(NC(=O)Cn2nc3ccc(-c4ccc(C)c(C)c4)nn3c2=O)c1	i
Cc1cc(C(=O)NCC2CCN(Cc3cc(C)oc3C)CC2)no1	i
O=C(c1cnn(-c2ccccc2)n1)N1CCN(c2cc(N3CCCCC3)ncn2)CC1	i
CC(C)(C)OC(=O)CN(c1ccc(F)c(F)c1)S(=O)(=O)c1cccn2cnnc12	i
O=C(CSc1nccnc1N1CCN(c2ccccc2)CC1)Nc1ccc(F)cc1F	i
Cc1cc(C(=O)NCC#CCOc2cccc(C(F)(F)F)c2)c(C)o1	i
COc1ccc(OC)c(NC(=O)CN2CCc3[nH]c4c(C)c(Cl)ccc4c(=O)c3C2)c1	i
CC1Cc2ccccc2N1C(=O)c1cc2n(n1)CCCO2 (configuration not stated)	i
CC(=O)NC1C(=O)N(CCCOc2ccccc2C)c2c(C)cc(C)cc21 (configuration not stated)	i
COc1ccc(-c2noc(C3CC(=O)N(c4ccc(C(C)C)cc4)C3)n2)c(OC)c1 (configuration not stated)	i
O=C(NCc1ccc(F)cc1)N1CCN(Cc2nnnn2-c2ccc(Cl)cc2)CC1	i
CCCCC/C=C\C/C=C\CCCCCCCCCC(=O)O	i
O=C(NCC1CCCO1)c1nnn(-c2ccccc2Cl)c1-c1ccncc1 (configuration not stated)	i
Cn1nnnc1SCC(=O)Nc1cc(N2CCN(Cc3ccccc3)CC2)ncn1	i

# Among those listed so far, these contain an aryl thioether with sulfur outside any ring.
molecule	GIRK2 act
Cc1ccc(CNC(=O)Cc2cc(=O)[nH]c(SCc3ccccc3)n2)cc1	i
O=C(CCCSc1ccc(NC(=O)c2cccs2)nn1)NCc1ccncc1	i
CC(=O)c1cccc(NC(=O)CSc2nc3cc(-c4ccccc4)sc3c(=O)n2C)c1	i
COc1ccc(-c2cc(C(F)(F)F)c(C#N)c(SCCC(N)=O)n2)cc1	i
COc1ccccc1NC(=O)C1=C(C)Nc2nc(SC)nn2C1c1ccccc1F (configuration not stated)	i
O=C(CSc1nccnc1N1CCN(c2ccccc2)CC1)Nc1ccc(F)cc1F	i
Cn1nnnc1SCC(=O)Nc1cc(N2CCN(Cc3ccccc3)CC2)ncn1	i

# (listing goes on)
molecule	GIRK2 act
CCCNC(=O)Cn1nc2c(c1NC(=O)C13CC4CC(CC(C4)C1)C3)CSC2	i
CN(C)CC1CSCCCN1C(=O)Nc1ccccc1 (configuration not stated)	i
CC(O)(CCc1ccccc1)CNC(=O)Nc1ccc2c(c1)OCO2 (configuration not stated)	i
COc1ccc(CC(C)(O)CNC(=O)CCS(=O)(=O)c2ccccc2)cc1 (configuration not stated)	i
CC(C)(Oc1ccc(Cl)cc1)C(=O)N1C2CCC1COC2	i
COc1ccc(Cl)cc1NC(=O)CN1CCN(CC(=O)c2ccco2)CC1	i
Cc1csc(N2C(=N)SC(c3ccccc3)C2=O)n1 (configuration not stated)	i
COCCOC(=O)c1c(C)n(C)c2ccc(OC(=O)c3ccc(OC)c(OC)c3)cc12	i
CC(=O)Nc1ccc(NC(=O)COc2coc(CSc3nncn3C)cc2=O)cc1	i
O=C(CSc1ccc(F)cc1)NC1CCCC(OC(=O)Nc2ccc(F)cc2)C1 (configuration not stated)	i
CN(C(=O)C(=O)c1c[nH]c2ccccc12)C1CCCCC1	i
CCCCOc1ccc(NC(=O)NC(C)Cc2cccs2)cc1 (configuration not stated)	i
O=S(=O)(c1cccc(Cl)c1)N1CCN(c2ccc(-c3ccccc3)nn2)CC1	i
Cc1cc(C)c2sc(NC(=O)COc3ccccc3)nc2n1	i
CC(C)=CCc1cc(-c2coc3cc(O)cc(O)c3c2=O)ccc1O	i
O=C(Cn1c(=O)oc2ccc(Cl)cc21)N1CCc2ccccc21	i
COC(=O)c1ccc(NC(=O)CN2CCN(Cc3nc(C(C)(C)C)cs3)CC2)cc1	i
COc1ccc(NC(=O)Cc2nnc(-c3sccc3C)o2)cc1OC	i
COc1ccc(S(=O)(=O)c2c(C(=O)N3CCC(C)CC3)cnc3ccc(Cl)cc23)cc1	i
COc1ccc(Cl)cc1NC(=O)C1CCN(c2ccc(-c3cccnc3)nn2)CC1	i
Cc1nnc2ccc(S(=O)(=O)N(Cc3cccc(F)c3)c3cccc(Cl)c3)cn12	i
